Source: PubChem BioAssay (National Center for Advancing Translational Sciences (NCATS))
VDR inhibitor – inhibitors of human vitamin D receptor; VDR-SRC2-3 peptide fluorescence polarization, 2 h; 400,000 tested, 0.93% active; P11473; Potency, µM, for inactives: max response, negative = inhibition, actives largely listed as inhibitors; active = well fitted inhibition curve with a large enough effect; inconclusive = small, poorly fitted or top-dose-only effect, or another doubt; inactive = no such curve, though single readings can be large or run the other way; note: series mostly up to about 120 µM
Target sequence (P11473 whole entry, looked up): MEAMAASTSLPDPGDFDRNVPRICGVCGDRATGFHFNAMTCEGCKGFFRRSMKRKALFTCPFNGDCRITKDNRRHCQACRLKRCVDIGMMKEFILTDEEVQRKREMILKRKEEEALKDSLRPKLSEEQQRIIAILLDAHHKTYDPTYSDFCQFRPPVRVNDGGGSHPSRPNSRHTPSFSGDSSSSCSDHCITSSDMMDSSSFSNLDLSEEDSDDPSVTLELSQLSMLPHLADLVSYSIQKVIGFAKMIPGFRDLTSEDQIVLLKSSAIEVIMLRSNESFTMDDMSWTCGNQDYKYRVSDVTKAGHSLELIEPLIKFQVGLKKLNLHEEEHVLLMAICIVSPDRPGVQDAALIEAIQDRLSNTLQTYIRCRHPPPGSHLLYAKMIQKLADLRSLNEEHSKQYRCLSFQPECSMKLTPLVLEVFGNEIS
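FP read-out; VDR + SRC2-3 coactivator peptide; 23 nl compound by pintool; 2 h RT incubation; reagents held at 4 deg C, protected from light.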
* = called active by the depositor; ? = inconclusive; & = joins results of further samples. % is set by controls: 0 for no effect and ±100 for the full control effect; potency is the fitted concentration of half-maximal effect. The list is partial, so the mix of outcomes need not match the whole.

SMILES	VDR inhibitor
CCc1ccc(NS(=O)(=O)c2ccc(OC)c(C)c2)cc1	-2%
CCOc1cc(S(=O)(=O)NCCc2c(C)[nH]c3ccc(C)cc23)ccc1Br	7%
O=C(CCN1C(=O)[C@@H]2Cc3ccccc3CN2C1=O)N[C@H](C(=O)O)c1ccccc1	-6%
CC(=O)c1c(C)oc2c(Br)cc(NS(=O)(=O)c3ccc(Br)cc3)cc12	6%
Cc1ccc2c(c1)c(Sc1ccccc1)c(CC(=O)O)n2C	-25%
COc1ccc(OC)c(CN2CCN(Cc3cccc4ccccc34)CC2)c1	-3%
Cn1nnnc1SCC(=O)N1CCN(Cc2ccccc2)CC1	11%
COc1ccc(N(C(=O)c2csnn2)C(C(=O)NC2CCCC2)c2cccs2)cc1 (centres undefined)	0%
Cc1cc2ncn(CC(O)COC3CCCCC3)c2cc1C (centres undefined)	18%
O=C(CNC(=O)CNC(=O)c1ccc(Cl)cc1Cl)NCc1cccc(Cl)c1	3%
CC(C)CCN1CCNC(=O)C1CC(=O)N(C)CCCN1CCOCC1 (centres undefined)	2%
COc1ccccc1CNC(=O)C1CCN(S(=O)(=O)c2ccc3c(c2)CC(C)N3C(=O)C2CC2)CC1 (centres undefined)	-15%
C=CCNC(=O)CCNS(=O)(=O)c1ccc(Br)cc1	5%
CCOC(=O)CCn1c(CC(=O)OCC)nc2ccccc21	-11%
COc1ccccc1CN(Cc1cccnc1)S(=O)(=O)c1ccc(-n2cnnn2)c(OC)c1	7%
Cc1ccc(S(=O)(=O)Nc2c(C)nc3nc(C)[nH]n3c2=O)cc1	-19%
CCC(Cc1ccccc1)NC(=O)Cn1nc(C)n2c(cc3occc32)c1=O (centres undefined)	15%
CC(=O)N1CCN(Cc2nc3cc(NC(=O)COc4cccc(C)c4)ccc3n2C)CC1	-12%
COc1ccc(C)cc1NC(=O)CNC(c1ccccc1)c1ccccc1	0%
O=C(COC(=O)CCC(=O)c1ccc(Cl)cc1)NCc1ccco1	-5%
CCOC(=O)[C@@H]1[C@H]2COc3ccccc3[C@@H]2N2C(=O)N(c3cccc(Cl)c3)C(=O)[C@]12C	-5%
CCCN1CCC(NC(=S)Nc2ccc(OC)c(OC)c2)CC1	-1%
Cc1cccc(C)c1NC(=O)CNC(=O)C(C)N1CCN(c2cccc(Cl)c2)CC1 (centres undefined)	-3%
O=C(O)c1ccc(-c2c3nc(c(-c4ccc(C(=O)O)cc4)c4ccc([n-]4)c(-c4ccc(C(=O)O)cc4)c4nc(c(-c5ccc(C(=O)O)cc5)c5ccc2[n-]5)C=C4)C=C3)cc1.[Mn+3]	11%&-10%
Cc1ccc(NC(=O)CCN2C(=O)C3CC=CCC3C2=O)cc1Cl (centres undefined)	6%
CCOC(=O)c1ccc(NC(=O)c2cc(F)c(F)cc2Cl)cc1	-8%
O=S(=O)(NCc1ccccc1Cl)c1ccc(-n2cccn2)cc1	-5%
O=C(CSc1ncnc2c1cnn2-c1ccccc1)NC1CCS(=O)(=O)C1 (centres undefined)	-21%
CC(OC(=O)c1ccccc1NS(=O)(=O)c1cccc(C(F)(F)F)c1)C(=O)N(C)Cc1ccccc1 (centres undefined)	14%
COc1ccc(N2CCN(C(=S)NC(=O)c3cccs3)CC2)c([N+](=O)[O-])c1	-1%
CC(C)OC(=O)c1cc2c(=O)[nH]c(C(Cl)(Cl)Cl)nc2o1	-7%
CCN1CCN(C(c2ccccc2)c2sc3nc(C)nn3c2O)CC1 (centres undefined)	9%
COc1cc2c(N3CCOCC3)cc(O)c(CC(=O)Nc3ccccc3)c2cc1OC	-7%
CCOC(=O)c1c(NC(=O)C(=O)N/N=C/c2ccc(O)c(OC)c2)sc2c1CCCCC2	9%
O=C(CCCCCN1C(=O)CCC1=O)Nc1ccc(Br)cc1F	12%
COC(=O)C1=C(N)OC2=C(C(=O)CC(C)(C)C2)C1c1ccccc1OCC#N (centres undefined)	14%
CN(C)CC(=O)N1CCc2ccccc2C1	12%
Oc1ccc(NCc2ccccc2OCc2ccccc2F)cc1	40µM*
O=C(NCCc1nc2ccc(Cl)cc2[nH]1)C1CCC(=O)N(Cc2cccc(F)c2)C1 (centres undefined)	6%
COC(=O)CNc1ccc2c(c1)OCO2	4%
COC(=O)Nc1ccc2c(c1)N(C(=O)CCN1CCOCC1)c1ccccc1S2	-18%
Cc1ccc(S(C)(=O)=O)cc1C(=O)N1CC(C(N)=O)Oc2ccccc21 (centres undefined)	19%
CCC(=O)NC(c1ccc([N+](=O)[O-])cc1)c1c(O)ccc2ccccc12 (centres undefined)	2%
CNC(=O)c1cc(C(=O)c2ccccc2C(F)(F)F)c[nH]1	-8%
C[n+]1c2n(c3ccccc31)N=C(c1ccccc1)CS2	-15%&-22%
O=C(O)c1c(Cl)c(Cl)c(Cl)c(Cl)c1C(=O)N1CCOCC1	-9%
COc1cccc(C(=O)/C(C#N)=N/Nc2cccc(-c3ccnc(C)n3)c2)c1	-15%
COC(=O)CSc1nsc(SCC(=O)OC)n1	-16%
Cc1cc(NC(=O)c2ccc(Cl)cc2Cl)no1	1%
Cc1sc(NC(=O)c2c(F)cccc2F)nc1-c1ccccc1	14%
Nc1cc(=O)[nH]c(SCC(=O)Nc2cccnc2Cl)n1	-20%
CC(=O)OCn1nnc2ccccc2c1=O	17%
COc1ccc(C(=O)Nc2nncs2)cc1S(=O)(=O)N1CCOCC1	-5%
Cc1nnc(SCc2cc(=O)n3c(C)cccc3n2)s1	7%
CCN(CC)C(=O)CN(c1cc2c(cc1OC)oc1ccccc12)S(=O)(=O)c1ccc(C)cc1	6%
Cc1ccc2nc(-c3ccc(C)c(NC(=O)CSc4ccc(Cl)cc4)c3)oc2c1	7%
CC1(C)Cc2c(cnn2-c2ccccc2)C(NC(=O)CCCn2cncn2)C1 (centres undefined)	-24%
O=S(N1CCCCC1)C12CC3CC(CC(C3)C1)C2 (centres undefined)	-5%
CC(=O)Nc1ccc(C(=O)OCC(=O)Nc2c(F)cccc2F)cc1	-13%
COc1ccc(S(=O)(=O)N2CCN=C2SCc2cccc(C)c2)cc1	0%

7 records picked at random from the list so far, as already listed:
SMILES	VDR inhibitor
CCOC(=O)c1c(NC(=O)C(=O)N/N=C/c2ccc(O)c(OC)c2)sc2c1CCCCC2	9%
CCOC(=O)CCn1c(CC(=O)OCC)nc2ccccc21	-11%
COC(=O)Nc1ccc2c(c1)N(C(=O)CCN1CCOCC1)c1ccccc1S2	-18%
COc1ccc(C)cc1NC(=O)CNC(c1ccccc1)c1ccccc1	0%
O=C(CNC(=O)CNC(=O)c1ccc(Cl)cc1Cl)NCc1cccc(Cl)c1	3%
CC(=O)Nc1ccc(C(=O)OCC(=O)Nc2c(F)cccc2F)cc1	-13%
CCN1CCN(C(c2ccccc2)c2sc3nc(C)nn3c2O)CC1 (centres undefined)	9%

Carrying on.
SMILES	VDR inhibitor
CCOc1ccc(C=NC23CN4CN(CN(C4)C2)C3)cc1	-12%
COc1cc(/C=N\NC(C)=O)ccc1OC/C=C/c1ccccc1	4%
CCN(CC)C1Oc2cc3c(cc2C(c2cccc(OC)c2O)C1C)OCO3 (centres undefined)	-11%
COc1ccc(-c2cn3nc(N4CCCC(C(=O)NCc5ccccc5OC)C4)sc3n2)cc1 (centres undefined)	6%
COc1ccccc1C(=O)NC(=O)COC(=O)CNC(=O)c1ccc(Cl)cc1Cl	-10%
CCc1noc(C)c1C(=O)N1CCN(S(=O)(=O)c2cccc(C(F)(F)F)c2)CC1	-11%
CC1=CC2=NC(=O)/C(=C\c3ccc(-c4cccc(Cl)c4)o3)C(=N)N2O1	28%
Cc1cccc(-c2nc(CS(=O)CC(=O)NCc3cccs3)c(C)o2)c1 (centres undefined)	-9%
COc1cccc(CNC(=O)c2ccc3c(c2)nc2n3CCOC2)c1	6%
CCN(CC(=O)NC1CCS(=O)(=O)C1)S(=O)(=O)c1c(C)c(C)cc(C)c1C (centres undefined)	2%
CCn1c(CNC(=O)c2ccccc2Br)nnc1SCC(=O)NC1=NCCS1	2%
CN(c1ccc(O)cc1)S(=O)(=O)c1ccc2ccccc2c1	-9%
C=CCC(C)(O)CCc1ccccc1 (centres undefined)	9%
CN(C)c1cccc2c(S(=O)(=O)NCc3ccc(S(N)(=O)=O)cc3)cccc12	-15%
CCn1cc(CCCC(=O)NCc2cccnc2)c2ccccc21	0%
COc1ccc(N(CC(=O)N2CCN(Cc3ccccc3)CC2)S(C)(=O)=O)cc1OC	-21%
Fc1ccccc1N1CCN(c2ncnc3c2nc2n3CCCC2)CC1	1%
COc1ccc2cc(-c3cccnc3)ncc2c1	0%
CC(C)N(C(=O)CSc1nnc(Cc2csc(Nc3ccccc3)n2)o1)C(C)C	11%
COc1cccc2c1ncc1c(-c3ccc(C)cc3)nn(-c3cccc([N+](=O)[O-])c3)c12	3%
CSC1=C(C#N)C(=O)NC(c2ccccc2O)S1 (centres undefined)	-15%
O=C(CNC(=O)c1ccccc1F)OCCCOC(=O)CNC(=O)c1ccccc1F	19%
CS(=O)(=O)Nc1ccc(C2=NN(C(=O)c3ccco3)C(c3ccc(F)cc3)C2)cc1 (centres undefined)	-13%
O=C(c1ccccc1)N(Cc1ccccc1)c1ccccn1	-6%
CCOC(=O)C1CCN(C(=O)C(C)Sc2nnc3ccccn23)CC1 (centres undefined)	5%
O=C(CN1C(=O)NC2(CCCC2)C1=O)Nc1nc(-c2ccc(F)cc2)cs1	3%
CC(=O)c1cc(Cc2csc(C(C)=O)c2)cs1	8%
Cc1ccccc1OCc1ccc(-c2nc(C#N)c(N3CCN(C)CC3)o2)o1	-2%
N#CCC(=O)Nc1ccc(C(=O)OCC(=O)Nc2ccccc2-c2ccccc2)cc1	1%
Cc1ccc(C(=O)C2=C(O)C(=O)N(Cc3ccco3)C2c2cccc(Br)c2)o1 (centres undefined)	-15%
CN(C)c1cccc2c(S(=O)(=O)N3CCOCC3)cccc12	-6%
C=CCO/N=C/C1=C(O)C(C(=O)OC)C(C)(C)CC1=O (centres undefined)	?
CCc1ccc(NC(=O)CN2C(C(=O)OC)=C(c3ccccc3)c3ccccc3S2(=O)=O)cc1	2%
O=C(CN1CCN(S(=O)(=O)c2ccccc2F)CC1)Nc1ccccc1C(=O)c1ccccc1	1%
CCc1ccc(S(=O)(=O)n2ccnc2)cc1	14%
O=C(O)c1cc2n(n1)C(C(F)(F)F)CC(c1ccco1)N2 (centres undefined)	-2%
COC(=O)c1ccc2c(=O)n(-c3ccccc3F)c(=S)[nH]c2c1	-17%
CCOc1cccc(NC(=O)C2CC(=O)N(C)C(=Nc3cccc(F)c3)S2)c1 (centres undefined)	-3%
O=C(CCc1nc2ccccc2c(=O)[nH]1)NCC(=O)Nc1ccc(F)c(F)c1	-12%
CCc1ccc(CNC(=O)CCCC(=O)n2nc(C)c3ccccc32)cc1	-2%

(cont.)
| Compound | VDR inhibitor |
| --- | --- |
| CCOc1ccc(NC(=O)C(=O)NCCN2CCN(S(=O)(=O)c3ccc(C)cc3)CC2)cc1 | -22% |
| Cn1c(=O)[nH]c2sc3c(c2c1=O)CC(C)(C)OC3 | -3% |
| O=C(NCc1cccnc1)c1c[nH]c2cc3c(cc2c1=O)OCCO3 | 15% |
| COc1ccc(Oc2nnc(-c3ccc(C)cc3)c3ccccc23)cc1 | 1% |
| CCC(c1nnnn1C1CCCC1)N1CCN(c2ccccc2F)CC1 (centres undefined) | 6% |
| Cc1cc(/C=C2\C(=N)N3N=C(S(C)(=O)=O)SC3=NC2=O)c(C)n1Cc1ccccc1 | -3% |
| CC(C)(C)c1nn(-c2ccccc2)c2nc(Cl)c(C=O)cc12 | -14% |
| Cc1cccc(NC(=O)COC(=O)c2cccs2)c1C | 11% |
| O=S(=O)(c1cc(Cl)cc(Cl)c1)N1CCC2CC1c1cc(Cl)ccc12 (centres undefined) | ? |
| CN1CCc2c(sc(NC(=O)c3ccc(C(=O)c4ccccc4)cc3)c2C(N)=O)C1 | 9% |
| CC(C)(C)C(=O)Nc1sc2c(c1-c1nc3ccccc3[nH]1)CCCC2 | 13% |
| CC(C)C[C@@H](COc1ccccc1)N1CCN(CCc2ccccc2)CCC1=O | ? |
| COc1cc(Cl)c(C)cc1NC(=O)COC(=O)/C=C/c1c(C)nn(C2CCS(=O)(=O)C2)c1Cl (centres undefined) | 8% |
| CCOc1ccc(CN2C(=O)c3ccccc3Sc3ccc(C(=O)NCc4ccco4)cc32)cc1 | -14% |
| COc1ccc(C)cc1S(=O)(=O)Nc1cccc(Cl)c1 | -14% |

A second format for two compounds above:
> CCN1CCN(C(c2ccccc2)c2sc3nc(C)nn3c2O)CC1 (centres undefined)
  VDR inhibitor = 9%
> COc1cc2c(N3CCOCC3)cc(O)c(CC(=O)Nc3ccccc3)c2cc1OC
  VDR inhibitor = -7%

Next section:
| Compound | VDR inhibitor |
| --- | --- |
| COc1ccc(-c2nc3c(c(SCC(=O)N4CCOCC4)n2)Cc2c(CO)cnc(C)c2O3)cc1 | -8% |
| CCOc1nc(-c2ccccc2)ccc1-c1noc(COc2ccccc2)n1 | -6% |
| O=c1/c(=C/c2ccccn2)sc2nc3ccccc3n12 | -12% |
| O=C(CCN1C(=O)C2C3CC(C(Br)C3Br)C2C1=O)OCC(=O)c1cccc([N+](=O)[O-])c1 (centres undefined) | -4% |
| COC(=O)c1c(NC(=O)COC(=O)c2ccccn2)sc(C)c1C | -3% |
| COc1ccc(NC(=O)CNC(=O)C23CC4CC(CC(C4)C2)C3)c(OC)c1 | 5% |
| COc1cc2c(cc1OC)C(COc1ccc3c(C)cc(=O)oc3c1)N(C(=O)c1cccc(C)c1)CC2 (centres undefined) | 8% |
| c1ccc2[nH]c(-c3ccnc4ccccc34)nc2c1 | 1%&0% |
| Cc1ccc(C(=O)/C=C\NCc2ccccc2)cc1 | 0% |
| N#Cc1ccc(-c2ccc(OCC(=O)NCCc3ccccc3)cc2)cc1 | -7% |
| Cc1ccc(Sc2c([N+](=O)[O-])ncn2C)cc1 | 6% |
| O=C(Nc1ccc(Oc2ccccc2)nc1)C1CCCCN1Cc1cccc(OCCO)c1 (centres undefined) | -2% |
